Screens: PubChem, several laboratories
NADH enzymes: inhibition of NAD/NADH coupling enzymes, library profiling; coupled PK/LDH NADH assays, four targets; IC50, µM (titrated, usually from 10 µM), for the others: top-dose inhibition; actives 0.02% (n = 65,000);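 active = single-dose screening hits from any of four coupled enzyme assays that gave an IC50 when retested across doses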;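 also: the DPM-DC format reads NADH fluorescence rather than 340 nm absorbance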
MMP-13 inhibitor: inhibitors of human MMP13. P45452. MMP-13 fTHP FRET cleavage, Mca fluorescence. inhibition, % at 4 µM. actives 0.07% (n = 65,000);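 active = inhibition above the mean of compound-free control plate wells plus 3 SD, cut at about 14% in these data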;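 also: 0% = DMSO wells and 100% = wells with reference MMP-13 inhibitor after basal subtraction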
tolC growth inh: blocks growth of E. coli BW25113 tolC mutant; AID 573; growth inhibition, % at 10 µM (by protocol); actives 2.2% (n = 65,000); OD615;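 active = growth inhibition at or above a cutoff equal to the mean over every tested compound plus 3 SD, cut at about 60% in these data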;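 also: growth measured after 20 h incubation at 37 °C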
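Test system – E. coli BW25113 ΔtolC::kan, tolC deletion mutant strain · Detection – OD at 615 nm · Buffer or medium – LB with kanamycin 50 µg/mL · Times – 20 h compound exposure of bacteria at 37 °C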
HEK293 NFkB inh: inhibitors of the PMA/ionomycin-induced NF-kB reporter in HEK293 cells | HEK-293 NF-kB luciferase reporter, luminescence | inhibition, % at 3 µM | actives 0.21% (n = 62,000);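 active = inhibition above the mean of all tested compounds plus 3 SD, cut at about 40% in these data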;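 also: 0% = stimulated DMSO wells and 100% = 10 µM reference inhibitor 5653914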
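Timing: 1 h pretreatment, 16 h stimulation, 37 °C; system: HEK-293 cells with stable firefly luciferase reporter driven by four HIV NF-kB elements; doses: 3 µM once, 0.30% DMSO; measured by: luciferase luminescence; control set: DMSO and 10 µM reference inhibitor; repeats: single test; reagent: PMA plus ionomycin mix as NF-kB-activating stimulus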
Abs 340nm: compound absorbs light at 340 nm | fold change at 10 µM | 65,000 tested, under 10 active | compound absorbance at 340 nm, fold over control;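 active = at 10 µM dose, initial 340 nm absorbance at least 2 fold that of control wells; inactive = change under 2 fold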;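 also: initial absorbance extrapolated from kinetic A340 decline of NADH oxidation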
* marks the source's active call; other numbers are inactive results. A portion of the library, so the mix of outcomes need not match the whole.

#	molecule	NADH enzymes	MMP-13 inhibitor	tolC growth inh
1	CC1=C(C(=O)Nc2ccccn2)C(c2cccnc2)n2nnnc2N1 (stereo not drawn)	5%	-16	-25
2	COCCCN1C(=O)C(=O)/C(=C(/O)c2ccc(OC(C)C)cc2)C1c1ccc(O)c(OC)c1 (stereo not drawn)	8%	2	-9
3	COc1ccccc1CNc1nc2nc3c(c(=O)n2[nH]1)CCC3	2%	-8	13
4	c1ccc(OCCSc2nnc3sc4ccccc4n23)cc1	6%	1	33
5	Cc1ccccc1Cn1c(=O)n(Cc2ccco2)c(=O)c2ccccc21	3%	-3	-6
6	COc1cccc(C(=O)Nc2cc(C)c3c(=O)oc4ccccc4c3n2)c1	4%	2	-3
7	O=c1c2ccccc2n(Cc2ccc(Cl)cc2)c(=O)n1Cc1ccco1	4%	-4	12
8	COc1ccc(S(=O)(=O)Nc2ccc(S(=O)(=O)N3CCCCC3)cc2)cc1OC	2%	1	25
9	CC1CN(c2cc(=O)n(-c3cccc(Br)c3)c(=O)[nH]2)CC(C)O1 (stereo not drawn)	2%	-6	0
10	Oc1[nH]c2ccccc2c1C=NCC1CCCO1 (stereo not drawn)	6%	3	-17
11	COc1cccc(C2C(C(=O)Nc3cccnc3)=C(C)Nc3nnnn32)c1OC (stereo not drawn)	5%	1	-8
12	O=C(Nc1ccccc1)c1ccc(NCCN2CCOCC2)c(S(=O)(=O)N2CCOCC2)c1	9%	5	-3

#	HEK293 NFkB inh	Abs 340nm
1	0	0.97
2	6	1.1
3	0	1.1
4	-13	1
5	7	1
6	6	1
7	11	1
8	7	0.99
9	15	1.1
10	14	1.1
11	10	0.97
12	7	1.1

Next section.
#	molecule	NADH enzymes	MMP-13 inhibitor	tolC growth inh
13	O=C(C1CC(c2ccccc2O)=NO1)N1CCCC1 (stereo not drawn)	1%	2	-2
14	O=S(=O)(Nc1ccc2c(c1)OCCO2)c1ccc2oc3ccccc3c2c1	0%	1	98*
15	COC(=O)[C@H](C)NC(=O)Nc1cc(OC)ccc1OC	4%	-1	-10
16	CCC1CCCCN1C(=O)Nc1cccc(NC(=O)N2CCCCC2CC)c1 (stereo not drawn)	3%	-2	3
17	COc1cc2c(cc1OC)CN(C(=O)COc1ccc(C)c(C)c1)CC2	2%	3	14
18	CC(C)Nc1ncnc2c1cnn2-c1ccccc1	2%	-7	-17
19	CCCCOc1ccc(/C(O)=C2/C(=O)C(=O)N(CCN(C)C)C2c2ccc(O)c(OC)c2)cc1 (stereo not drawn)	3%	0	-19

#	HEK293 NFkB inh	Abs 340nm
13	6	1
14	12	1.1
15	13	0.99
16	16	0.98
17	-2	0.97
18	-46	0.98
19	9	1.1

Grouped by structure: the entries above with sulfur.
#	molecule	NADH enzymes	MMP-13 inhibitor	tolC growth inh
4	c1ccc(OCCSc2nnc3sc4ccccc4n23)cc1	6%	1	33
8	COc1ccc(S(=O)(=O)Nc2ccc(S(=O)(=O)N3CCCCC3)cc2)cc1OC	2%	1	25
12	O=C(Nc1ccccc1)c1ccc(NCCN2CCOCC2)c(S(=O)(=O)N2CCOCC2)c1	9%	5	-3
14	O=S(=O)(Nc1ccc2c(c1)OCCO2)c1ccc2oc3ccccc3c2c1	0%	1	98*

#	HEK293 NFkB inh	Abs 340nm
4	-13	1
8	7	0.99
12	7	1.1
14	12	1.1

Molecules from the list above that contain a halogen, in the order listed:
#	molecule	NADH enzymes	MMP-13 inhibitor	tolC growth inh
7	O=c1c2ccccc2n(Cc2ccc(Cl)cc2)c(=O)n1Cc1ccco1	4%	-4	12
9	CC1CN(c2cc(=O)n(-c3cccc(Br)c3)c(=O)[nH]2)CC(C)O1 (stereo not drawn)	2%	-6	0

#	HEK293 NFkB inh	Abs 340nm
7	11	1
9	15	1.1
